MgrA DNA FP: S. aureus MgrA activity modulators, primary screen, biochemical, S. aureus Newman, fluorescence polarization; MgrA-DNA binding; inhibition, %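 (about 10 µg/mL by stock and volumes)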; hit rate 0.13% among 84,000;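 active = above 50% in either of two replicates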;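 note: 0% = protein plus DNA without compound and 100% = DNA alone without protein; higher means less MgrA bound to DNA so lower polarization; one replicate is shown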
Sa helicase inh: inhibitors of S. aureus replicative helicase, primary screen, biochemical, fluorescence unwinding readout | purified S. aureus helicase, fluorescence unwinding assay; about half of the hits fall short of the stated cut | inhibition, %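 (tested at about 80 µM)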 | hit rate 0.05% among 120,000 | AID 485395, 2010;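 active = both duplicates at 50% or more, or one of them with a favoured structure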;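 note: 0% = mean of negative control wells and 100% = mean of positive control wells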
An asterisk follows results filed as active; · = not tested or not shown. The list is partial, so the mix of outcomes need not match the whole.

Sequence of screens: MgrA DNA FP, Sa helicase inh
CC(=O)Nc1ccc(S(=O)(=O)N2CC(C)OC(C)C2)cc1 (stereo not drawn)
  -0.3, 2
O=C(O)COc1ccc(/C=C2/NC(=O)N(c3ccccc3)C2=O)cc1
  ·, 10
CCOc1ccc2nc(N3CCCCC3)sc2c1
  -2.5, 14
O=C(c1nn2c(c1Br)NC(c1cccs1)CC2C(F)(F)F)N1CCCc2ccccc21 (stereo not drawn)
  0.5, ·
COc1ccc(C2=NS(=O)(=O)N(C)C(C(=O)NCC(C)C)=C2)cc1OC
  ·, -9
CCn1c(SCC(=O)OC2CCCCC2)nnc1-c1ccc(OC)cc1
  4.2, -5
O=c1[nH]nc(-c2nnc3n2CCCCC3)c2ccccc12
  ·, -3
CCOc1ccccc1N(C)S(=O)(=O)c1ccc2c(c1)CCN2C(=O)CCC(=O)O
  ·, -6
CCn1c(SCC(=O)O)nnc1-c1sc2cc(Cl)ccc2c1Cl
  ·, 10
CN(C)S(=O)(=O)c1ccc(NC(=O)Cn2c(-c3ccccc3)noc2=O)cc1
  -3.1, 11
CCn1cc(CCCC(=O)NC2CCC(C)CC2)c2ccccc21 (stereo not drawn)
  -1.6, 3
Cc1cc(C(=O)CN2C(=O)C3CC=CCC3C2=O)c(C)n1CC1CCCO1 (stereo not drawn)
  ·, 3
COc1ccc(C2=NOC(C(=O)N3CCCC3)C2)cc1 (stereo not drawn)
  -1.2, 7
Cc1ccc(CNC(=O)C2c3ccccc3C(=O)N(C)C2c2cccs2)o1 (stereo not drawn)
  ·, 29
O=c1c2c([nH]n1-c1ccccc1)CCCC2
  2.5, -5
Cc1cccc(-n2ncc3c(NCCCN4CCCC4=O)ncnc32)c1
  ·, -4
Cn1cc(NC(=O)N2CCCCC2CCO)c2ccccc21 (stereo not drawn)
  ·, 13
CCc1ccc2c(CN3CCC(C(=O)OC)CC3)cc(=O)oc2c1
  ·, 5
CC(=O)Oc1c(Cc2ccccc2)c(=O)oc2ccccc12
  2.8, 9
COc1ccccc1NC(=O)COC(=O)c1ccccc1
  ·, -12
O=C(COc1ccc(Cl)cc1)Nc1c(F)c(F)c(F)c(F)c1F
  -3.2, 9
CC(/C=N/Nc1nc2ccccc2[nH]1)c1ccccc1 (stereo not drawn)
  ·, -7
O=S(=O)(c1cccc(S(=O)(=O)N2CCOCC2)c1)N1CCOCC1
  3.4, 15
COc1ccccc1-n1cc(C(=O)c2ccccc2O)cc(C#N)c1=O
  ·, -28
CCCCNC(=S)Nc1ccc(OC)cc1
  0.2, -9
CC1=NC(O)(C23CC4CC(CC(C4)C2)C3)C(C)S1 (stereo not drawn)
  1.1, 8
Cc1nc2cc(C(F)(F)F)ccc2s1
  ·, -3
N/C(=N\O)c1ccc(C2OCCO2)cc1
  -0.5, ·
COc1ccc2c(CC(=O)OCC(=O)N3c4ccccc4CC3C)coc2c1 (stereo not drawn)
  ·, -5
N#CCSc1nnc(CNc2ccc(Cl)cc2)n1-c1ccccc1
  -1.5, 14
CCSC1=NC(C)(C)C=C(C)N1
  0.2, ·
COC(=O)c1ccc(NC(=S)NC(=O)CCN2C(=O)c3ccccc3C2=O)cc1
  -1.3, ·
COc1cc(/C=N/NC(=O)c2cccc(N3CCCC3=O)c2)ccc1O
  -0.8, 9
COc1cc(NC(=O)COc2ccc(Cl)cc2)c(C(=O)O)cc1OC
  1.1, -8
CCN(CC)S(=O)(=O)c1ccc2c(c1)nc(SCC(=O)N1CCOCC1)n2-c1ccccc1OC
  ·, -6
COc1cccc(/C=N/NC(=O)CSCc2ccccc2)c1O
  3.9, 9
Cn1c(NC(=O)c2ccccc2)nc2ccccc21
  ·, 13
CS(=O)(=O)c1ccc2nc(NC(=O)c3cccs3)sc2c1
  ·, -10
CN=c1scc(-c2ccccc2OC)n1/N=C/c1ccc[nH]1
  ·, -9
CC1CC(C)(C)NC(=O)O1 (stereo not drawn)
  -1.8, 1
O=C(CCCC(=O)N1CCCC1)N1CCCC1
  -0.4, ·
CCN(CC)C(=O)c1cc2cccnc2n(Cc2ccccc2)c1=O
  ·, 13
O=c1nc2scc(CO)n2c2sc3c(c12)CCCC3
  ·, 13
O=C(NNc1ncnc2ccccc12)c1ccc(O)cc1
  ·, 2
Cc1cccc(NC(=O)c2cc3ccc(O)cc3oc2=O)c1
  1.0, 3
CN1C(=O)/C(=C/c2cn(CC(=O)O)c3ccccc23)c2ccccc21
  3.0, 17
COc1cc(NC(=O)NCCN2CCCc3ccccc32)cc(OC)c1OC
  ·, -6
Cc1ccc(-c2cc(C(=O)N3CCC4(CC3)OCCO4)c3ccccc3n2)o1
  3.3, 5
CCOC(=O)c1c(C)n(-c2ccccc2)c2ccc(OC(=O)Cc3ccccc3)cc12
  -0.2, ·
FC(F)(F)c1cccc(N2CCN(C3CCCCCC3)CC2)c1
  -0.5, 3
O/N=C/c1ncc(C(F)(F)F)cc1Cl
  1.8, ·
N#CCS(=O)c1ccccn1 (stereo not drawn)
  0.5, ·
O=C(CSc1ccc(-c2ccccc2)nn1)NCC1CCCO1 (stereo not drawn)
  ·, 2
S=C(NCCN1CCCCC1)NCC1CCCO1 (stereo not drawn)
  -1.1, 13
CC1CC(C)CN(S(=O)(=O)c2ccc(NN)nc2)C1 (stereo not drawn)
  ·, 19
Cc1noc(C)c1C(=O)NCCCc1ccccc1
  -1.9, 9
O=C(NC(=S)Nn1cnnc1)C1CCCCC1
  ·, 13
CC(C)OC(=O)CSc1nc2cccnc2n1C1CCCCC1
  4.1, 2
N#Cc1ccc(Oc2sccc2[N+](=O)[O-])cc1
  4.1, ·
OC1(C#CCN2CCOCC2)CCCCC1
  5.0, -2

Next part.
Sequence of screens: MgrA DNA FP, Sa helicase inh
Cc1cccc(C)c1-n1nnnc1SCc1ccc(Cl)cc1
  -2.6, ·
C=CCN(C(=O)Cc1c(C(=O)O)[nH]c2ccccc12)c1ccccc1
  ·, 13
Cc1noc(C)c1CCNC(=O)c1cnc(N2CCOCC2)nc1
  ·, 4
Cc1cc(-c2csc(NC(=O)C3CC4C=CC3C4)n2)c(C)n1Cc1ccco1 (stereo not drawn)
  ·, 8
CC12CCC(C(=O)N3CCN(Cc4ccccc4)CC3)(OC1=O)C2(C)C (stereo not drawn)
  ·, 18
Cc1cc(C)c(C#N)c(SCC(O)COc2ccc(Cl)cc2)n1 (stereo not drawn)
  -3.8, -1
Cc1cc(-c2nc(-c3ccnn3C(=O)Nc3cccc(Cl)c3)cs2)no1
  0.2, ·
Fc1ccccc1/C=C1\CCCC2=C1Nc1ncnn1C2c1ccccc1F (stereo not drawn)
  -7.7, 6
COC(=O)c1noc(C(=O)OC)c1O
  ·, -3
Cc1ccccc1OC(=O)OCC(C)C
  0.6, 6
COC(=O)C(C)Oc1ccc2c(=O)c(-c3ccc(Cl)cc3)coc2c1 (stereo not drawn)
  ·, 4
NC(=O)c1ccccc1NC(=O)c1ccoc1
  -2.8, ·
CCc1ccccc1NS(=O)(=O)c1ccc(-n2cccn2)cc1
  -1.2, 10
CCN1C(=O)C2C(c3ccccc3O)NC(Cc3c[nH]c4ccccc34)(C(=O)O)C2C1=O (stereo not drawn)
  -0.5, 20
CC1(CC(=O)O)SC(=O)NC1=O (stereo not drawn)
  ·, 8
Cc1ccc(S(=O)(=O)N=C2C=CC(=NS(=O)(=O)c3ccc(C)cc3)C=C2)cc1
  9.4, 9
CC1CCN(c2nc3c(c(=O)[nH]2)CCNC3)CC1
  ·, 16
Cc1ccc(S(=O)(=O)N2CCC(C(=O)O)CC2)s1
  1.0, 2
CCc1sc(C(=O)Nc2nc(-c3ccccn3)cs2)cc1C
  ·, 24
O=C(O)c1ccc(NNC(=S)NC2CC2)cc1
  ·, -1
CNC(=O)c1cc(Br)c(C)c(C)c1C
  ·, -15
Clc1ccc2oc(-c3ccccc3)cc(=NCCCN3CCOCC3)c2c1
  -0.6, 28
O=C(O)C1CCN(S(=O)(=O)c2ccccc2)CC1
  ·, -15
Cc1c(CNCCC2=CCCCC2)c(C(=O)O)c(C)n1Cc1cccc(Cl)c1
  1.1, 1
CN1C(=O)/C(=C\c2ccccc2)Sc2ccc(C(=O)NCCc3ccccc3)cc21
  0.1, 8
COc1ccc(NC(C)=O)cc1NC(=O)CN1CCCN(S(=O)(=O)c2ccc(Br)cc2)CC1
  ·, 31
COc1ccc(-c2cn3c4ccccc4nc3n2CCN2CCN(CCO)CC2)cc1
  ·, 5
NC(=O)Cn1cnc2c(cnn2-c2ccccc2)c1=O
  ·, 2
COC(=O)C(C)Oc1ccc2oc(=O)cc(-c3cc4ccccc4o3)c2c1 (stereo not drawn)
  ·, 13
CCO/C=C1/C(=O)N(Cc2ccc(OC)cc2)C(=O)c2ccccc21
  ·, -18
O=C(CS(=O)(=O)c1ccccc1)Nc1ccc(S(=O)(=O)N2CCCCC2)cc1
  -1.6, -1
O=C(/C=C/c1ccco1)Nc1ccc(-c2cc3ccccc3oc2=O)cc1
  12, 12
CCN(CC)C(=O)CSc1nc2ccccc2c(=O)[nH]1
  ·, -8
O=C(Cc1ccc(Cl)cc1)OC1CCOC1=O (stereo not drawn)
  ·, -4
Cn1c(-c2ccc3ncccc3c2)n[nH]c1=S
  -3.4, ·
COc1ccccc1C1(C#N)C(=O)Nc2ccccc21 (stereo not drawn)
  0.5, 21
Nc1nc2c(c(C(F)(F)F)n1)CCCC2
  -2.3, ·
CCN1CCS/C1=C\C=C\C1=[N+](CC)CCS1
  0.4, 8
Cc1ccc2nc(C)cc(C(=O)O)c2c1
  0.9, -9
CCOC(CN(C(=O)c1ccc(C)cc1)c1ccc(F)cc1)OCC
  -2.2, ·
Nc1c(C(=O)N2CCCCC2)sc2nc(-c3cccs3)cc(C(F)(F)F)c12
  5.5, -21
COc1ccc(CC(=O)OCC(=O)N2CCN(S(=O)(=O)c3ccc(C)cc3)CC2)cc1
  ·, -15
CCN(CC)CCNc1c(N)c(=O)oc2ccccc12
  ·, -1
O=c1c2c3c(sc2nnn1Cc1ccccc1F)CCCC3
  ·, 4
O=C(NC1=NCCS1)C1CCN(S(=O)(=O)c2ccc(Cl)cc2)CC1
  ·, 2

Profiles from above. Order of values: MgrA DNA FP	Sa helicase inh
Results for Nc1nc2c(c(C(F)(F)F)n1)CCCC2 = -2.3	·
Results for CCN(CC)C(=O)CSc1nc2ccccc2c(=O)[nH]1 = ·	-8

16 of the compounds above, with the structure last:
| MgrA DNA FP | Sa helicase inh | SMILES |
| --- | --- | --- |
| · | 5 | COc1ccc(-c2cn3c4ccccc4nc3n2CCN2CCN(CCO)CC2)cc1 |
| · | 2 | NC(=O)Cn1cnc2c(cnn2-c2ccccc2)c1=O |
| · | 13 | COC(=O)C(C)Oc1ccc2oc(=O)cc(-c3cc4ccccc4o3)c2c1 (stereo not drawn) |
| · | -18 | CCO/C=C1/C(=O)N(Cc2ccc(OC)cc2)C(=O)c2ccccc21 |
| -1.6 | -1 | O=C(CS(=O)(=O)c1ccccc1)Nc1ccc(S(=O)(=O)N2CCCCC2)cc1 |
| 12 | 12 | O=C(/C=C/c1ccco1)Nc1ccc(-c2cc3ccccc3oc2=O)cc1 |
| · | -8 | CCN(CC)C(=O)CSc1nc2ccccc2c(=O)[nH]1 |
| · | -4 | O=C(Cc1ccc(Cl)cc1)OC1CCOC1=O (stereo not drawn) |
| -3.4 | · | Cn1c(-c2ccc3ncccc3c2)n[nH]c1=S |
| 0.5 | 21 | COc1ccccc1C1(C#N)C(=O)Nc2ccccc21 (stereo not drawn) |
| -2.3 | · | Nc1nc2c(c(C(F)(F)F)n1)CCCC2 |
| 0.4 | 8 | CCN1CCS/C1=C\C=C\C1=[N+](CC)CCS1 |
| 0.9 | -9 | Cc1ccc2nc(C)cc(C(=O)O)c2c1 |
| -2.2 | · | CCOC(CN(C(=O)c1ccc(C)cc1)c1ccc(F)cc1)OCC |
| 5.5 | -21 | Nc1c(C(=O)N2CCCCC2)sc2nc(-c3cccs3)cc(C(F)(F)F)c12 |
| · | -15 | COc1ccc(CC(=O)OCC(=O)N2CCN(S(=O)(=O)c3ccc(C)cc3)CC2)cc1 |

Continuation:
Sequence of screens: MgrA DNA FP, Sa helicase inh
Cc1ccsc1C1CC(=O)NC(SCC(=O)OCc2ccccc2)=C1C#N (stereo not drawn)
  ·, -15
Cc1cccc(S(=O)(=O)N/N=c2\sc3ccccc3n2C)c1
  ·, 15
CC[N+](C)(CC)Cc1cc2ccccc2c2c1COC2
  4.2, 13
COc1ccc(-c2noc(CSCC(=O)Nc3ccc(C(C)C)cc3)n2)cc1OC
  -0.2, 3
COCC(C)NS(=O)(=O)c1ccccc1 (stereo not drawn)
  ·, -8
Cn1c(C(=O)N2CCc3ccccc32)cc2sccc21
  0.6, 2
CSc1nc(N)n2nc(-c3cccs3)cc2n1
  ·, -9
O=c1oc(-c2c(Cl)cccc2Cl)ns1
  11, ·
COc1ccc(-c2noc(CC(=O)N(C)CCC#N)n2)cc1
  -0.8, -7
COc1ccc(CC(=O)Nc2ccc(-c3nnc(-c4ccc(C)cc4)o3)cc2)cc1
  -1.4, 23
COc1ccc(C2Nc3ccccc3C(=O)N2c2ccc(C)cc2)cc1CN1C(=O)c2ccccc2C1=O (stereo not drawn)
  3.6, ·
c1ccc(Cn2nnnc2CN2CCCC2)cc1
  -18, 6
Cc1cc2n(n1)c1cc(C)nn1c1cc(C)nn21
  2.6, 3
O=c1c2c3c(sc2ncn1Cc1ccccc1)CCCC3
  -2.2, 9
O=C1O[C@H](C(O)CO)C(O)=C1O (stereo partly drawn)
  -0.3, ·
O=C1CNC(=S)N1Cc1cccs1
  ·, 10
O=C1CC(C(=O)O)c2ccccc21 (stereo not drawn)
  -2.8, ·
Cc1nc(-c2ccnc(-c3cc(Cl)cc(Cl)c3)n2)cs1
  -1.2, ·
CCCOC(=O)c1ccc(-n2nc(C(F)(F)F)c3c(C)cc(=O)oc32)cc1
  4.3, 16
CN1CCN(Cc2c(O)ccc3cc(-c4nc5ccccc5[nH]4)c(=O)oc23)CC1
  ·, -88
CC(C)(C)n1cnnc1Sc1ccc(C(F)(F)F)cc1[N+](=O)[O-]
  -1.0, ·
Clc1ccc(C2Oc3ccccc3CN2Cc2ccco2)cc1 (stereo not drawn)
  ·, 1
